# Screening results (PubChem BioAssay)
# Rango release inh – inhibitors of RanGTP-induced Rango-importin beta complex dissociation | O95149+P62826 | Biochemical FRET Rango-importin beta, RanGTP-induced dissociation | Potency, µM (doses to about 46.1 µM), for the others: at the top dose activity change, negative = inhibition | 340,000 tested, 0.071% active | AID 540253; active means falling FRET ratio curve, often poorly fitted, with flat reads before Ran was added; inconclusive means other falling curves, or compound fluorescence or quenching; inactive means flat or rising ratio curve;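 note: potency is the fitted concentration of half-maximal effect; % of control where 0% means no effect; nearly all actives have a fitted effect of over 45% in size; -100% = wells without RanGTP and RCC1; the record marks most hits as doubtful in a second field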
#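 Rango (0.1 uM)–importin beta (0.25 uM) complex; RanGTP-RCC1 trigger; 45 min RT; CFP/YFP FRET read.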
# GLA inh pH 4.5 – blocks human alpha-galactosidase A at pH 4.5; purified enzyme, 4-MU-alpha-Gal fluorescence, pH 4.5; activity change, negative = inhibition, % at 105 µM; AID 1467; P06280; 230,000 tested, under 10 active; inconclusive = small, poorly fitted or top-dose-only inhibition, or a rising curve; inactive = flat fitted curve, though single readings scatter; no compound was filed as active;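 note: 0% = full activity with enzyme and -100% = basal without enzyme; dose as in the result columns while the protocol names 77 µM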
# Rango complex inh – prevents formation of the Rango-importin beta complex; Q14974; Rango CFP/YFP FRET sensor + importin beta, 45 min; Potency, µM (titrated, usually from 92.2 µM), for the others: at the highest dose inhibition of complex formation; 340,000 tested, 0.031% active; AID 540263; active = rising FRET ratio curve, often small or poorly fitted; inconclusive = mostly compound fluorescence or quenching in the first reads; inactive = flat curves in all reads;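 note: potency is the fitted concentration of half-maximal effect; 0% = DMSO wells and 100% = buffer wells lacking importin beta; nearly all actives have a fitted effect of over 15% in size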
# Target sequence (Q14974 whole entry, looked up): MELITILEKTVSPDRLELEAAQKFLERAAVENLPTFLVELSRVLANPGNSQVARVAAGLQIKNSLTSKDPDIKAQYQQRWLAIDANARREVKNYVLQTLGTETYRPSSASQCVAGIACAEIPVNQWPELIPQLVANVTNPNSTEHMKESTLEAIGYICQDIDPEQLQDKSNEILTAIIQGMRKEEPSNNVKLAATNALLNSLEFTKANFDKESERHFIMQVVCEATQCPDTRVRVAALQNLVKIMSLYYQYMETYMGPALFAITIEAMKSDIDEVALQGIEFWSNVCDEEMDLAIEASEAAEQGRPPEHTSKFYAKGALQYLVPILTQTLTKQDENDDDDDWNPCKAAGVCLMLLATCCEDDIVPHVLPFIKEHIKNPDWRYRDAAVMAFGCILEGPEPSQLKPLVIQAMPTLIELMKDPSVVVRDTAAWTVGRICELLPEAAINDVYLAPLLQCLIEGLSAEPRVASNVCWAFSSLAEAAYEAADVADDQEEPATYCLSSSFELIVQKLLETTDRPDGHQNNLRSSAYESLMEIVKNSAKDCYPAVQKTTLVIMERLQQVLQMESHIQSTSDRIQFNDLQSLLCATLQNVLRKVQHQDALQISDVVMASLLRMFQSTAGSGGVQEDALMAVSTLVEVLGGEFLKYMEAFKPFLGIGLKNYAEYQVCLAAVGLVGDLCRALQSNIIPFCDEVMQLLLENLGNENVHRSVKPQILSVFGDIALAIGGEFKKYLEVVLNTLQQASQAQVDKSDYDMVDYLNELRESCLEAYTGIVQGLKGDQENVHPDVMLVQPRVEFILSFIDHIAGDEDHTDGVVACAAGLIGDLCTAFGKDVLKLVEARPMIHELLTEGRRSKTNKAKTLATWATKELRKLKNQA
#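 Inhibition scored from the CFP 486 nm/YFP 530 nm FRET ratio 45 min after adding 0.125 microM importin beta to 50 nM Rango biosensor preincubated 5 min with compound (room temperature, PBS with DTT, Tween-20, BSA). No-importin wells as positive control.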
# miR-21 reporter – raises the signal of a miR-21 reporter; AID 2288; Potency, µM (series often up to 38.3 µM), inactives show at the highest dose reporter change, positive = more light; 340,000 tested, under 10 active; HeLa miR-21 FLuc reporter, luciferase, 48 h; active = well fitted rising curve with a large enough effect; inconclusive = small, poorly fitted or top-dose-only effect; inactive = no such curve, though single readings can be large or run the other way;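 note: % of control where 0% means no effect; miR-21 action dims this reporter so a rising signal means less miR-21 action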
#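 HeLa cells stably expressing CMV-driven firefly luciferase with a downstream miR-21 binding sequence, endogenously expressing miR-21, were treated with titrations (up to about 40uM final) for 48 hours at 37 degree Celsius. Luciferase luminescence was read after lysis.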
# An asterisk follows results filed as active; ? = inconclusive; nt = not tested or not shown; & = joins results of further samples.
SMILES,Rango release inh,GLA inh pH 4.5,Rango complex inh,miR-21 reporter
O=C(c1ccc2c(=O)n(Cc3ccccc3Cl)c(=S)[nH]c2c1)N1CCCC1,-11%,nt,-1.6%,4%
Nc1nc(NCCOCCO)nc(Nc2cccc(F)c2)c1[N+](=O)[O-],13%,nt,-2.4%,-16%
CC(C)=C[C@@H]1C[C@H](C)[C@H]2CC[C@H](C)c3c(O)c(O)c(C)c1c32,-24%,nt,-0.3%,nt
COC(=O)c1cc(NS(=O)(=O)c2ccc(N3CCOCC3)c(N)c2)cc(C(=O)OC)c1,7%,1,3.7%,-7%
O=C(CN1C(=O)S/C(=C\C=C\c2ccccc2)C1=O)N1CCCCC1,?,nt,1.6%,-3%
COc1ccccc1NS(=O)(=O)c1cccc(C(=O)N/N=C/c2ccc3c(c2)OCCO3)c1,0%,-5,-0.3%,-7%
CCn1c2ccccc2c2cc(CN3CCN(S(=O)(=O)Cc4ccccc4)CC3)ccc21,7%,1,-1.1%,-1%
COc1ccc(CC(=O)Nc2ccc3c(C)cc(=O)oc3c2)cc1OC,21%,1,-4.7%,-18%
N#Cc1cccc(C(=O)OCc2cccc(S(=O)(=O)N3CCOCC3)c2)c1,0%,nt,-2.8%,nt
CC(NC(=O)c1ccco1)C(=O)N(C)Cc1ccc(C(F)(F)F)cc1 (stereo unspecified),-2%,nt,4.6%,2%
Cc1ccc(-c2cc(-c3ccc(F)cc3)c(C#N)c(N)n2)o1,?,1,?,4%
CC(Oc1ccc(/C=N/NC(=O)Cc2cccc3ccccc23)cc1)C(=O)O (stereo unspecified),6%,0,-1.2%,-15%
O=C(c1cccc(Oc2ccc([N+](=O)[O-])cc2Cl)c1)N1CCCCC1,-19%,-5,-2.2%,6%
COc1nc(C)cc(C)c1S(=O)(=O)c1ccccc1,0%,nt,2.2%,1%
CC(C)OCCCNc1ncnc2c1[nH]c1ccccc12,-3%,-2,2.9%,5%
COc1ccc(N2CCN(C(=O)CNC(=O)c3ccco3)CC2)cc1,8%,nt,1.4%,-4%
COc1cc(C(=O)NCC(=O)OCC(=O)c2cccc3ccccc23)cc(OC)c1OC,3%,nt,0.0%,0%
CCN1CCc2c(sc(NC(=S)NC(=O)c3ccco3)c2C(N)=O)C1,?,-4,?,-21%
CCOc1ccc(S(=O)(=O)N2CCCCC2)cc1NC(=O)CSCc1c(C)noc1C,-4%,nt,-0.9%,nt
Cc1onc(-c2ccccc2Cl)c1C(=O)Nc1ccccc1,4%,-3,2.0%,14%

# Next section; the last two above are carried over.
SMILES,Rango release inh,GLA inh pH 4.5,Rango complex inh,miR-21 reporter
CCOc1ccc(S(=O)(=O)N2CCCCC2)cc1NC(=O)CSCc1c(C)noc1C,-4%,nt,-0.9%,nt
Cc1onc(-c2ccccc2Cl)c1C(=O)Nc1ccccc1,4%,-3,2.0%,14%
CC(=O)Nc1c(Cl)cc2c(c1Cl)C(=O)c1ccccc1-2,-4%,nt,1.4%,nt
O=C1N[C@@H](Cc2ccccc2)COC(=O)[C@H](Cc2ccc(F)cc2)C/C=C\C[C@H]1CC(=O)N(CCO)Cc1ccccc1,13%,nt,3.8%,nt
Cc1cccc(N2CCN(C(=O)c3ccncc3)CC2C)c1 (stereo unspecified),-3%,-3,-0.7%,21%
O=C(c1noc2c1CCCC2)N1CCCCC1,-2%,9,1.5%,-4%
N#CCC(=O)N/N=C/c1ccc(N2N=C(c3ccccc3)CC2c2ccccc2)cc1 (stereo unspecified),?,nt,?,18%
Nc1nc(N)nc(-c2cccc(Br)c2)n1,-4%,nt,1.8%,nt
Cc1cc(-c2nc3ccccc3s2)ccc1N,?,nt,?,nt
Cc1cc(NC(=O)CSc2nc3cc4c(cc3c(=O)n2CCc2ccccc2)OCO4)no1,-24%,-1,?,-14%
CN(Cc1ccc2nonc2c1)Cc1nc(CC2CC2)no1,8%,2,2.9%,0%
O=C(O)COc1ccccc1C=NNC(=O)c1ccc(NS(=O)(=O)c2cccs2)cc1,-1%,nt,-0.7%,nt
O=[N+]([O-])c1ccccc1/C=C/CN1CCC(O)CC1,26%,nt,-2.7%,4%
C=CCNC(=O)c1onc(CSc2cccc(C)c2)c1C(=O)O,0%,6,-3.0%,2%
CCN(Cc1ccccc1)S(=O)(=O)c1ccc(S(=O)(=O)N(Cc2cccc(OC)c2)CC2CCCO2)cc1 (stereo unspecified),21%,0,0.3%,4%
COc1ccccc1CC(=O)NC(=O)c1ccccc1O,-11%,nt,-2.6%,0%
CC(C)CN1C(=O)N(c2ccc(Cl)cc2)C(C)(O)CC1(C)C (stereo unspecified),-12%,nt,4.2%,-1%
COc1cc(/C=C/C(=O)Nc2ccc(S(=O)(=O)Nc3onc(C)c3C)cc2)cc(OC)c1OC,5%,nt,2.2%,nt
Cn1c(SCC(=O)N2CCCc3ccccc32)nnc1-c1cccs1,0%,9,-2.0%,-1%
Nc1ncnc2c1ncn2[C@@H]1O[C@H](CNS(=O)(=O)c2cc(S(=O)(=O)c3ccccc3)cs2)[C@@H](O)[C@H]1O,16%,nt,-4.4%,nt
Cc1ccc2c(CC(=O)N3CCc4ccccc43)coc2c1,-4%,9,-1.2%,-60%
CCn1cc([N+](=O)[O-])nc1C,2%,-2,0.7%,0%
CC1CC(C(F)F)n2nc(C(=O)O)cc2N1 (stereo unspecified),12%,1,-3.4%,-1%
COc1ccc(C=NNc2nc3c([nH]2)c(=O)n(C)c(=O)n3C)cc1,-9%,nt,-2.7%,nt
COc1ccc([N+](=O)[O-])cc1NC(=O)Cc1ccc(Cl)cc1,-3%,-1,-4.4%,-1%
O=C(Nc1ccc(-c2nnc3n2CCCCC3)cc1)c1cc2ccccc2o1,-12%,2,-4.1%,-17%
O=C(CN1CCCCC1)n1c2ccccc2c2ccccc21,-9%,-8,0.4%,5%
COC(=O)C1=C(C)N=C2SCCC(=O)N2C1c1cccs1 (stereo unspecified),1%,-1,-0.4%,1%
O=C(Cn1nnc2ccccc2c1=O)N[C@@H](Cc1c[nH]c2ccccc12)C(=O)O,10%,1,6.4%,-3%
CCOC(=O)COc1ccc2c(C)cc(=O)oc2c1C(=O)c1ccccc1,10%,15,0.2%,-2%
O=C(OCC(=O)N1CCc2ccccc21)[C@@H]1CC(O)CN1S(=O)(=O)c1ccc(Cl)cc1 (stereo partly specified),-24%,nt,5.6%,nt
CCc1nc2scc(-c3ccccc3)c2c(=O)n1N,18%,-10,0.0%,-15%
Cc1ccc(NC(=O)COC(=O)c2ccc([N+](=O)[O-])o2)cc1S(=O)(=O)N1CCCCC1,-4%,-25,-4.1%,10%
O=C1C(=O)N(CCO)C(c2cccc(F)c2)/C1=C(\O)c1ccc(Cl)cc1 (stereo unspecified),19%,7,3.4%,-5%
COc1cccc(CNC(=O)CN2C(=O)CSc3ccc(S(=O)(=O)N4CCOCC4)cc32)c1,37%,nt,-1.2%,4%
Cc1ccc(-n2c(C)n[nH]c2=S)cc1,-3%,2,0.3%,-13%
O=C(Cc1ccccc1)NCC(=O)N1CCCC1,1%,nt,-0.1%,0%
CC1=C(C(=O)Nc2ccccc2C(=O)NC2CCCCC2C)SCCO1 (stereo unspecified),16%,nt,-1.8%,4%
O=C(CSc1nc2ccccc2c(=O)n1Cc1ccco1)c1ccccc1,-12%,0,-0.1%,0%
O=C(c1cc2cc(F)ccc2[nH]1)N1CCCC(Nc2ccc(F)cc2)C1 (stereo unspecified),11%,nt,0.2%,5%
COc1ccc(CCNC(=O)CN2C(=O)NC3(CCCCC3C)C2=O)cc1 (stereo unspecified),-10%,nt,-2.4%,nt
O=C(O)CC1SC(=O)N(Cc2ccccc2)C1=O (stereo unspecified),12%,1,0.4%,3%

# 6 entries drawn at random from those above:
SMILES,Rango release inh,GLA inh pH 4.5,Rango complex inh,miR-21 reporter
COC(=O)C1=C(C)N=C2SCCC(=O)N2C1c1cccs1 (stereo unspecified),1%,-1,-0.4%,1%
CCc1nc2scc(-c3ccccc3)c2c(=O)n1N,18%,-10,0.0%,-15%
O=C(c1cc2cc(F)ccc2[nH]1)N1CCCC(Nc2ccc(F)cc2)C1 (stereo unspecified),11%,nt,0.2%,5%
COc1ccc(C=NNc2nc3c([nH]2)c(=O)n(C)c(=O)n3C)cc1,-9%,nt,-2.7%,nt
CCOC(=O)COc1ccc2c(C)cc(=O)oc2c1C(=O)c1ccccc1,10%,15,0.2%,-2%
CC1CC(C(F)F)n2nc(C(=O)O)cc2N1 (stereo unspecified),12%,1,-3.4%,-1%

# Compound profiles, from the list above. Screens in order: Rango release inh	GLA inh pH 4.5	Rango complex inh	miR-21 reporter
# Results for O=C1C(=O)N(CCO)C(c2cccc(F)c2)/C1=C(\O)c1ccc(Cl)cc1 (stereo unspecified) → 19%	7	3.4%	-5%
# Results for COc1cccc(CNC(=O)CN2C(=O)CSc3ccc(S(=O)(=O)N4CCOCC4)cc32)c1 → 37%	nt	-1.2%	4%
# Results for COc1ccc([N+](=O)[O-])cc1NC(=O)Cc1ccc(Cl)cc1 → -3%	-1	-4.4%	-1%

# Other compounds follow.
SMILES,Rango release inh,GLA inh pH 4.5,Rango complex inh,miR-21 reporter
CCCCC(=O)Nc1ccc(C(=O)N2CCN(C)CC2)cc1,0%,0,1.1%,-7%
Cc1c(NC(=O)C2CCCN2S(=O)(=O)c2cccc3nsnc23)cccc1C(=O)O (stereo unspecified),1%,2,-3.4%,-7%
CNC(=O)c1csc(Cc2c(Cl)sc3ccc(Cl)cc23)n1,1%,0,-0.9%,11%
CCNc1nc(NCC)nc(OCC(=O)O)n1,-15%,0,2.1%,7%
COc1ccc(C(=O)N2CCN(C(=O)c3ccc(-c4ccccc4)cc3)CC2)cc1OC,1%,-3,0.2%,-8%
CC(=O)Oc1cccc(NC(=O)c2cccc(C(=O)Nc3cccc(OC(C)=O)c3)c2)c1,-3%,nt,-0.2%,2%
COC(=O)c1ccccc1NC(=O)CSCC(=O)Nc1ccc(F)cc1,1%,4,0.6%,-11%
CCOC(=O)C1=C(c2ccccc2)NC(=S)NC1c1cc([N+](=O)[O-])ccc1OC (stereo unspecified),?,8,1.3%,-9%
COc1ccc(CN(C)C(=O)c2ccc(Oc3ccccc3)cc2)cc1F,15%,nt,-1.2%,-3%
CCN1CCN(C(=O)/C=C/c2ccc(OC)cc2)CC1,-7%,nt,-1.0%,-3%
COc1cc(/C=C2\CCC(C3CCCC3)C2=O)ccc1OC(C)C (stereo unspecified),0%,nt,-0.9%,-5%
O=C(CSCC(=O)N1CCOCC1)Nc1ccccc1,-8%,-11,5.7%,2%
NC(=S)NN=C1c2ccccc2-c2cc(Br)ccc21,-2%,nt,0.7%,nt
COc1ccc(/C=N/NC(=O)CNC(=O)c2ccncc2)cc1,-10%,nt,0.7%,0%
O=C(N/C(=C\c1ccc([N+](=O)[O-])cc1)C(=O)N1CCOCC1)c1cccc(Br)c1,5%,nt,-1.2%,0%
COc1ccc(/C(C)=N/NC(=O)CNC(=O)/C=C\c2ccccc2OC)c(OC)c1,6%,nt,-0.1%,-2%
CCOC(=O)C1CCN(S(=O)(=O)c2ccc(Br)c(OCC)c2)CC1,-5%,-5,-6.3%,-3%
O=C(NCc1cc(C(F)(F)F)ccc1Cl)c1cccc2c1C(=O)c1ccc(N3CCOCC3)cc1S2(=O)=O,?,nt,?,nt
Cc1c(S(=O)(=O)N2CCCC(C)C2)c(=O)n(C)c(=O)n1C (stereo unspecified),0%,nt,4.2%,nt
Cc1ccccc1-c1cc(C(=O)NCc2cccs2)n(CC2CC(c3cccnc3)=NO2)n1 (stereo unspecified),-7%,nt,1.0%,nt
O=C(NC(NC(=S)Nc1ccccc1C(=O)O)C(Cl)(Cl)Cl)c1ccccc1 (stereo unspecified),-13%,-1,-0.1%,-1%
CCCCNC(=O)NNc1nc(Cl)cc(C)c1C#N,0%,1,-1.6%,25%
COc1cc(NC(=O)Cn2nc(Cc3cccnc3)c3ccccc3c2=O)cc(OC)c1OC,4%,-2,0.4%,-9%&1%

# These rows are one share of the data; rates above refer to the full screens.
